# Assay outcomes as filed in PubChem.
# HCMV NEC inh: cytomegalovirus nuclear egress complex inhibition | 190,000 compounds, 0.15% hits | HTRF UL50-UL53 interaction, normalized percent inhibition | inhibition, % (test concentration not listed);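 active means both replicates at 50% or more, plus weaker picks with an unusually low signal ratio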;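 further: stock transfer was 100 nL into about 20 µL; 0% = negative control wells and 100% = wells with untagged competitor protein; inactives centre near -12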
# Starred values were filed as active, the others as inactive; & = joins results of further samples.
SMILES,HCMV NEC inh
COC(=O)c1oc2ccccc2c1-n1cccc1,7.0
CC(C)NCCCn1c(Sc2cc3c(cc2I)OCO3)nc2c(N)ncnc21,10.7
CCc1ccc(OC(=O)c2cncc(Br)c2)cc1,-10.6
Nc1c(C(=O)NCc2ccccc2)nnn1CC(=O)Nc1ccccc1,3.0
CCCCN=C(N)NO,7.7&7.7
O=C(O)CN(CCCc1ccccc1)CC(=O)O,14.0
O=C(CCOc1ccccc1)N1CCN(c2nc3ccccc3s2)CC1,11.4
Cc1ccc(C(=O)C(C)OC(=O)c2cccs2)cc1 (configuration not stated),-2.1
O=C(C=Cc1cccc(S(=O)(=O)Nc2ccccc2)c1)NO,-47.5
O=C(Nc1cccc(-c2nc3ccccc3o2)c1)C1=COCCO1,3.9&1.3
C=CCN1C(=O)/C(=C2\SC(=S)N(CCc3ccc(OC)cc3)C2=O)c2ccccc21,-9.8
OC[C@H]1O[C@@H](n2cnc3c(NC4CCCC4)ncnc32)[C@H](O)[C@@H]1O,-9.8
O=S(=O)(c1ccc(F)cc1)N1CCCc2ccccc21,-13.8
CC(C)NCCN(C(C)C)S(=O)(=O)c1ccc(Cl)cc1Cl,3.1
CC1(C)SC2C(NC(=O)COc3ccccc3)C(=O)N2C1C(=O)O (configuration not stated),-28.4
O=C(c1c(-c2ccccc2)oc2ccc(O)cc12)N1CCCCC1,-29.4
O=C(COc1ccccc1)Nc1nnc(-c2ccc(Cl)cc2)o1,-3.2
Cc1nc2c(O)cccc2c(=O)[nH]1,-0.2
O=S(=O)(/N=C/c1c(O)ccc2ccccc12)c1cccs1,97.5*
CCc1cc2c(=O)c(-c3cscn3)coc2c(CN(C)C)c1O,3.6
COc1cccc(OCC(=O)Oc2ccc(C(=O)c3ccccc3)cc2)c1,-4.4
COc1cccc(NC(=O)CSc2nccn2-c2ccccc2)c1,-14.9
CCOc1ccc(NCc2cn3cccnc3n2)cc1,-27.8
CC(NC(=O)C(c1ccccc1)c1ccccc1)c1ccccc1 (configuration not stated),-6.4
O=C(O)C1CC(=O)N(CCc2c[nH]c3ccccc23)C1 (configuration not stated),-0.4
# Next results follow:
SMILES,HCMV NEC inh
c1ccc2c(c1)ccc1oc(-c3ccn[nH]3)cc12,-6.1
CCN1CCN(Cc2ccc(NC(=O)c3cc(NC(=O)c4cncc(-c5ccc(C#N)cc5)c4)cc(OC)c3)cc2C(F)(F)F)CC1,-3.7
Cn1cccc1Cc1nnc(SCC(=O)N2CCCc3ccccc32)n1C,5.6
O=C(CCc1ccccc1)N1CCN(c2nc3ccccc3s2)CC1,-3.4
COc1ccccc1NC(=O)c1c[nH]c2ccccc12,1.4
CCCCCCCCCCCCCCCC(=O)OC[C@@H](O)COP(=O)(O)O,-31.2&-31.2
CN(Cc1noc(C2CCCC2)n1)C(=O)c1nc(=O)[nH]c2ccccc12,-16.7&-16.7
Cc1cnc(CNC(=O)c2cc(-c3ccccc3)cc(S(=O)(=O)N3CCN(C)CC3)c2)cn1,-8.8
COc1cccc(/C=C2/SC(=S)N(CCC(=O)N3CCCCC3)C2=O)c1,2.0
NC(C(=O)O)c1cc(O)cc(O)c1 (configuration not stated),-7.8
Cc1nnc(NC(=O)N2CCCN(c3ccncc3C)CC2)s1,-12.2
Cc1nnc2n1NC(=Nc1ccc(Br)cc1)CS2,-10.9
OC[C@H]1O[C@@H](Oc2ccc(O)cc2)[C@H](O)[C@@H](O)[C@@H]1O,-23.4
Cc1ccc2c(C(=O)N3CCCC(C#N)C3)cc(-c3cnn(C(C)C)c3)nc2c1 (configuration not stated),-33.7
CC(=O)Nc1nnc(-c2cccs2)o1,1.1
COCCn1c(C)cc(C(=O)CSc2ccc(Cl)cc2)c1C,4.8&-13.0
CCCCCCCC/C=C\CCCCCCCC(=O)OC[C@@H](O)COP(=O)(O)O,-17.7&-17.7&-11.9
O=C1CC(Nc2ccc(N3CCOCC3)cc2)C(=O)N1c1cccc(C(F)(F)F)c1 (configuration not stated),-4.9
Cc1sc(NC(=O)C2CC2)c(C(N)=O)c1C,-11.2
CCn1c(-c2cccs2)nc2ccccc21,-5.2
COC(=O)CC1(O)c2ccccc2C(=O)N1Cc1ccccc1 (configuration not stated),-9.1
C[C@@H]1CN(c2c(F)c(F)c3c(=O)c(C(=O)O)cn(C4CC4)c3c2F)C[C@H](C)N1,-53.4
CN(C)c1ccc(NC(=O)c2cc(-c3ccccc3)nc3ccccc23)cc1,4.5&-10.5
COc1cccc2c1CCN(Cc1ccccc1)C2=O,-5.3
COC(=O)CNC(c1ccccc1)c1cc(C)ccc1NC(=O)c1ccccc1 (configuration not stated),-25.7
# The list continues:
SMILES,HCMV NEC inh
CC(C)c1ccccc1OCC(O)CN(C)C1CCCCC1 (configuration not stated),-7.0
C[C@@H]1CC2C3CCC4=CC(=O)C=C[C@]4(C)[C@@]3(F)[C@@H](O)C[C@]2(C)[C@H]1C(=O)CO (some centres not stated),-52.8&-67.5
CCn1c(=O)n(C2=C(CO)CN(CC3CCCCCCC3)CC2)c2ccccc21,2.6
COCCOc1nc(-c2ccc(Cl)c(Cl)c2)n(-c2ccc(NC(=O)CCl)cc2)n1,24.2
CCCCNC(=O)[C@@H]1C[C@H](CN2CCOCC2)CN(Cc2ccc(O)cc2)C1,3.7
O=P(O)(O)O[C@H]1[C@@H](O)[C@H](O)[C@@H](OP(=O)(O)O)[C@H](OP(=O)(O)O)[C@H]1O,-15.2&-15.2
COc1ccc(CCNC(=O)CSc2ncnc3ccccc23)cc1OC,3.5
COc1ccc(-n2c(SCCCN3C(=O)c4cccc5cccc(c45)C3=O)nnc2-c2ccncc2)cc1,-14.3
CC(=C\c1ccccc1)/C=C1/SC(=S)N(CCC(=O)Nc2nc(C)cs2)C1=O,-7.6
CCC1CCCCN1CC(O)COc1ccc2c(c1)OCO2 (configuration not stated),-15.4
Cc1c(C#N)c(Sc2cccc(C(F)(F)F)c2)nc2ccccc12,-7.3
Cc1ccc(S(=O)(=O)n2cnc3cc(C)c(C)cc32)c(C)c1,4.2
O=C(CSc1nc2ccccc2c(=O)[nH]1)NCCO,3.7&2.2
CCOC(=O)c1c(NC(=O)/C=C\C(=O)O)sc(C)c1-c1ccccc1,18.2
c1ccc(CNCc2cn3c(-c4ccccc4)nnc3s2)cc1,-4.8
CSc1n[nH]c(=O)n1-c1ccc2c(c1)OCCO2,-10.9
COP(=O)(OC)OC(c1ccc(Cl)cc1)P(=O)(OC)OC (configuration not stated),-8.1
O=C(NC(C(=O)O)C12CC3CC(CC(C3)C1)C2)c1ccccc1 (configuration not stated),-16.5
O=C(Nc1ccc2sccc2c1)C1CC1,-0.1
CCCCCCCCCCCCCCCCOCC(CO)OC (configuration not stated),-3.3
CC(/C=C1\SC(=S)N(CCCC(=O)Nc2cccnc2)C1=O)=C\c1ccccc1,-6.1
CC(C)CCNC(=O)C1CCC(=O)N1C(C)C (configuration not stated),1.5
Cc1cc(-c2cc3c(n(Cc4cccnc4)c2=O)CCN(C(=O)C2Cc4ccccc4O2)C3)ccc1F (configuration not stated),-7.3
O=C(OCCN1CCCCC1)c1ccccc1Cl,-16.7
CC(C)C(NC(=O)CC12CC3CC(CC(C3)C1)C2)C(=O)O (configuration not stated),-12.4
# (list continues)
SMILES,HCMV NEC inh
Cc1nc2cc(NC(=O)c3ccc4c(c3)OCCO4)ccc2s1,-6.4
CCn1cc(S(=O)(=O)CC(=O)NC2CCCCC2)c2ccccc21,6.5
O=C1C2C3C=CC(C3)C2C(=O)N1C1CCS(=O)(=O)C1 (configuration not stated),-2.8
CSC(C)C(=O)C1=C(O)c2ccccc2C1=O (configuration not stated),-26.5
Cc1nn(-c2ccccc2)c2sc(C(=O)NC3CCSC3=O)cc12 (configuration not stated),1.2
CC1=C(C(=O)N2CCOCC2)C(c2c(F)cccc2Cl)C2=C(CCCC2=O)N1 (configuration not stated),-8.8
CC1(COc2ccc3c(c2)ncn3-c2ccc3cccc(N4CCC(N)CC4)c3n2)COC1,-54.5
CCC(=O)NCCc1nc2ccccc2n1C(C)C,-6.1
CC(C)n1c(O)c(C2=c3ccccc3=NC2=O)sc1=S,-3.1
CCOC(=O)N1CCN(C(=O)c2sc3cc(F)ccc3c2Cl)CC1,-5.4
COC(=O)CN1CCN(S(=O)(=O)c2ccc(Br)cc2)CC1,4.8
CNC(=O)c1cccc(NS(=O)(=O)c2ccc(C)cc2)c1,1.3
Cn1c(=NC(=O)c2ccc(Br)s2)sc2cc(F)ccc21,-7.3
COc1ccc(N=Cc2cc(Br)ccc2O)c(OC)c1,-5.0
Cc1cnc(CNC(=O)c2cccc(Nc3ncnc4c3cnn4C)c2)cn1,2.2
O=C(CSc1nnc(-c2ccccc2)o1)N1CCc2ccccc21,-2.0
Clc1cc(-c2ccccc2)c2ccccc2n1,1.6
CCCn1cc(-c2ccnc(NC(CC(C)(C)C)c3cccnc3)n2)c(C)n1 (configuration not stated),-0.1
CCC(CO)Nc1nc(Nc2cccc(Cl)c2)c2ncn(C(C)C)c2n1 (configuration not stated),-13.2
CC(=O)Nc1nc2ccc(S(=O)(=O)N3CCCC3)cc2s1,-0.8
O=C(O)C(Cc1c[nH]c2ccccc12)N1C(=O)C2CC=CCC2C1=O (configuration not stated),-7.0
O=C(/C=C\c1ccc2c(c1)OCO2)Nc1nnc(-c2ccccc2)s1,-10.1
O=C(CSc1nnc(-c2ccccc2)o1)N1CCCC1,-2.5
O=S(=O)(CCOc1ccccc1)N1CCOCC1,-14.4
CNC(=O)c1ccc(N2C(=S)N(c3ccc(C#N)c(C(F)(F)F)c3)C(=O)C2(C)C)cc1F,-2.3

# In the list so far, 3 have a furan ring, fused or not:
SMILES,HCMV NEC inh
COC(=O)c1oc2ccccc2c1-n1cccc1,7.0
O=C(c1c(-c2ccccc2)oc2ccc(O)cc12)N1CCCCC1,-29.4
c1ccc2c(c1)ccc1oc(-c3ccn[nH]3)cc12,-6.1

# In the list so far, these contain a CF3 group.
SMILES,HCMV NEC inh
CCN1CCN(Cc2ccc(NC(=O)c3cc(NC(=O)c4cncc(-c5ccc(C#N)cc5)c4)cc(OC)c3)cc2C(F)(F)F)CC1,-3.7
O=C1CC(Nc2ccc(N3CCOCC3)cc2)C(=O)N1c1cccc(C(F)(F)F)c1 (configuration not stated),-4.9
Cc1c(C#N)c(Sc2cccc(C(F)(F)F)c2)nc2ccccc12,-7.3
CNC(=O)c1ccc(N2C(=S)N(c3ccc(C#N)c(C(F)(F)F)c3)C(=O)C2(C)C)cc1F,-2.3

# More results follow:
SMILES,HCMV NEC inh
CCC1SC(CC)C(=O)N(CC(=O)NCCc2ccccc2)C1=O (configuration not stated),-4.2
OC1(c2ccccc2)CCN(Cc2ccccc2Cl)C1 (configuration not stated),-9.7
OCc1nc2ccccc2n1CC(O)COc1ccc(OCc2ccccc2)cc1 (configuration not stated),-7.0
Cc1ccc2cc(CCNC(=O)COc3ccccc3)c(=O)[nH]c2c1,4.0
Cc1sc2ccccc2c1-c1ccn(CC(=O)Nc2ccnn2C(C)C)n1,0.1
COc1ccc(C(=O)NCCc2c[nH]c3ccc(OC)cc23)cc1,-3.5
CCn1c(C)nc2cc(OC3(C(=O)O)CCCCC3)ccc21,-18.7
COC(=O)C1=COC(OC2OC(CO)C(O)C(O)C2O)[C@H]2C(CO)=CC[C@H]12 (some centres not stated),-5.7
C=CC[n+]1c(-c2ccccc2)csc1NC(C)(C)C,3.6
CC(NC(=O)c1ccc(Cl)cc1Cl)C(=O)O (configuration not stated),-15.1
NC1=NC(=O)C(=Cc2ccc(-c3ccc(S(N)(=O)=O)cc3)o2)S1,-5.7
CC(C)c1cc(-c2ccc(F)c3ccccc23)nc(N)n1,-11.2
O=C1CCCN2N=C(SCC(=O)OCc3ccccc3)SC2=N1,-22.2
CCSc1nc2c(c(=O)n1-c1ccc(C)cc1)SCC2,-10.8
NC(=O)COc1ccc2c(-c3ccccc3)cc(=O)oc2c1,-39.9
c1ccc2sc(-c3ccn[nH]3)cc2c1,-12.9
O=S(=O)(c1ccc(Cl)s1)N1CCN(S(=O)(=O)c2ccc(Cl)s2)CC1,-15.3
O=C(/C=C/c1ccc2c(c1)OCO2)NCCn1ccc2ccccc21,-12.9
Oc1c(C(c2cccs2)N2CCOCC2)sc2ncnn12 (configuration not stated),-30.9
CCN1C(=O)N(C)C(=O)C12CCN(Cc1ccc(Oc3ncccn3)cc1)CC2,5.1
CC(=O)N1CCN(c2ccc(NC(=O)c3cc(Br)ccc3Cl)cc2)CC1,-12.7
COc1nccnc1NS(=O)(=O)c1ccc(N)cc1,-22.7
CC1(C)CC(CC(=O)N2CCC(n3cc(C(C)(C)O)nn3)CC2)CC(C)(C)N1,8.6
Cc1noc(COc2ccccc2)c1C(=O)Sc1ccc(F)cc1F,-0.2
Cc1noc(C)c1CC(=O)N1CCc2c(c(C(=O)N3CCOCC3)nn2CCCc2ccccc2)C1,4.8
# (more compounds)
SMILES,HCMV NEC inh
CCCCC/C=C\C/C=C\CCCCCCCC(=O)O[C@H](COC(=O)CCCCCCCCCCCCCCC)COP(=O)(O)OCCN,-23.0&-23.0
O=C(CSc1nnc(NC(=O)C2CC2)s1)Nc1ccccc1,5.8&-18.2
CCCCC[C@H](O)/C=C/[C@@H]1[C@@H](C/C=C\CCCC(=O)OC(C)C)[C@@H](O)C[C@H]1O,7.0&7.0
O=C1C(=O)N(Cc2ccc(Cl)c(Cl)c2)c2ccccc21,5.0&-26.4
O=S(=O)(c1cccs1)N1CCN(c2ccccn2)CC1,-17.4
CCCCCC(O)C=CC1C(O)CC(=O)C1CCCCCCC(=O)O (configuration not stated),-7.0&-57.4
Clc1ccc(C2=CSc3nnc(Cc4ccccc4)n3N2)cc1,-10.0
Nc1nc(-c2ccccc2)c(-c2ccccc2)s1,-7.8&-22.6
Cc1ccc(C(=O)Nc2sccc2C(N)=O)cc1C,-1.0
CCc1nc2sc3c(c2c(=O)[nH]1)CCC3,-15.9
NS(=O)(=O)c1ccc(N=C2C(=O)Nc3ccccc32)cc1,-16.1
C=C1C2(C(=O)Nc3ccc(Br)cn3)CCC(C2)C1(C)C (configuration not stated),-8.3
COc1cc(NC(=O)c2cc(C)on2)cc(C(=O)Nc2cccc(C(F)(F)F)c2)c1,-15.1

# The list is partial (hit frequency here may not be typical).
